# MenB inh: Mtb MenB enzyme inhibition; P9WNP5; MenB enzyme assay, absorbance read-out; some hits fall short of the stated cut; inhibition, %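 (about 12 µg/mL by stock and volumes)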; 100,000 tested, 0.43% active; AID 540299;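 active = mean of two replicates above 30%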;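 also: 0% = no compound and 100% = wells with inactive enzyme; the first replicate is given; strong numbers were not always called active; inactives centre near -10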
# Target sequence (P9WNP5 whole entry, looked up): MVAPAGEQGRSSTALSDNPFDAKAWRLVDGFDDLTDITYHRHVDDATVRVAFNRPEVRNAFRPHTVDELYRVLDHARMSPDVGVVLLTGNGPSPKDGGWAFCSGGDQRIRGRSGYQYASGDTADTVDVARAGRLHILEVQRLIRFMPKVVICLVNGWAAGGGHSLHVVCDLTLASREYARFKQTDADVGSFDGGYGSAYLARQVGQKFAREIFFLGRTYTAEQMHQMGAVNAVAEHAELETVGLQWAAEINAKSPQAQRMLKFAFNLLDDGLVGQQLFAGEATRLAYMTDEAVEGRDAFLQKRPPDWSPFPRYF
# PV pol inh: poliovirus RNA polymerase inhibition; 150,000 tested, 0.66% active; % elongation, % (compound at 16.7 µg/mL); AID 588519; poliovirus polymerase elongation, fluorescence polarization; stronger effect = lower value; in the data active = % elongation below about 90%; also: some results filed as inactive read as strong as hits
# MbtI inh: MbtI salicylate synthase inhibition. P9WFX0. purified MbtI enzyme, fluorescence intensity read-out. inhibition, %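 (about 17 µg/mL by stock and volumes)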. 100,000 tested, 0.89% active. AID 493033;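 active = above 50% in both replicates, above 80% if mildly self-fluorescent; inactive = the rest, strongly fluorescent compounds included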;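 also: 0% = mean of negative and 100% = mean of positive controls; one replicate is shown; some compounds called inactive have numbers as strong as hits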
# Target sequence (P9WFX0 whole entry, looked up): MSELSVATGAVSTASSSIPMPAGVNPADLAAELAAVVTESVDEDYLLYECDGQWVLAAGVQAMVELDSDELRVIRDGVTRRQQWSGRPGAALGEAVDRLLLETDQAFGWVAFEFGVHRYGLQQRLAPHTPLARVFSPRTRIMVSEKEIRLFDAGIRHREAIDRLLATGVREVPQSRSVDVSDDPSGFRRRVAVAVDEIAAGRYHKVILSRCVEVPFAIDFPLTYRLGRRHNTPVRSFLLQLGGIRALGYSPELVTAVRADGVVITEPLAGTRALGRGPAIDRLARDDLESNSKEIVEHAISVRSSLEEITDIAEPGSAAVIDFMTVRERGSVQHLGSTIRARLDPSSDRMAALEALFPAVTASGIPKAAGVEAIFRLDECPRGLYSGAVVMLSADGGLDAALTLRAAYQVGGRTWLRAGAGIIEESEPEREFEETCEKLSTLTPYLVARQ
# PV pol inh intensity: second read-out of PV pol inh, no call of its own (marks repeat the call); % elongation; measured here: total intensity read-out; formula for this scale not given here;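 total fluorescence in place of polarization; lower means less elongation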
# Active calls of the source: *; i = inactive; · = not tested or not shown; & = joins results of further samples.
SMILES,MenB inh,PV pol inh,PV pol inh intensity,MbtI inh
Cc1cc(OCc2noc(CSc3ccc(C(F)(F)F)cn3)n2)cc(C)c1Cl,-7,112,112,0
CCC(NC(=O)c1cc(OC)c(OC)c(OC)c1)C12CC3CC(CC(C3)C1)C2 (stereo not given),-2,104,108,-15
O=C(CSc1nnc(CN2CCCC2)n1-c1ccccc1)c1ccc2c(c1)OCO2,-17,99,107,0
CC(=O)NCCc1nc2cc(NC(C)=O)ccc2n1C,-4,103,106,-14
O=S(=O)(NCCc1ccccc1)c1cccc2cccnc12,-32,104,102,1
COc1ccc(CN(C)CC(=O)c2c[nH]c3ccccc23)c(OC)c1,-3,108,115,-1
CC(C)N(Cc1ccccc1)S(=O)(=O)c1ccc2c(c1)CCO2,12,109,112,-11
COc1ccc(C(=O)N(CC(=O)Nc2nn(-c3ccccc3)nc2C(N)=O)Cc2ccccc2)cc1,-21,98,100,·
CC(O)/C=C\c1cc[n+](C)cc1 (stereo not given),12,105,113,-2
NC(=O)N1c2ccccc2CC(=O)c2ccccc21,2,100,104,-11
CNC(=O)NCC12CC3CC(CC(C3)C1)C2,-70,108,101,-8
O/N=C1\CC(O)(C(F)(F)F)Oc2ccc(Cl)cc21 (stereo not given),7,100,101,-1
COc1cc(OC)cc(C(=O)NCC(=O)OC2CCOC2=O)c1 (stereo not given),-36,99,112,2
C#CCNCc1cc(=O)n2ccsc2n1,-1,106,106,20
CC1CCN(C(=O)c2cc3sccc3n2C)CC1,11,100,102,7
Cc1cc(C(=O)O)c(=O)[nH]c1C,21,102,98,113
O=C(CSc1nnc2sc3ccccc3n12)N1CCc2ccccc21,-19,101,108,-1
Oc1ccc(Cl)cc1/C=N/c1nccs1,-30,97,99,16
CC(C)C1=NN(C(=O)C(O)c2ccccc2)C(O)(C(F)(F)F)C1 (stereo not given),-12,102,104,-9
CC(NC(=O)c1cccs1)c1ccccc1 (stereo not given),-4,103,102,-15
CCOC(=O)C1=C(CSc2ccc(C)cc2C)NC(=O)NC1C (stereo not given),-19,102,110,-6
O=C(Nc1cccc(C(F)(F)F)c1)c1cccs1,-14,102,100,5
CNC(=S)NC1CC2CCC1C2 (stereo not given),9,104,108,-13
CCN1C(=O)c2ccccc2S(=O)(=O)c2ccc(C(=O)N3CCCCC3)cc21,-14,99,101,8

# Already shown: 15 of the compounds above.
SMILES,MenB inh,PV pol inh,PV pol inh intensity,MbtI inh
CC(O)/C=C\c1cc[n+](C)cc1 (stereo not given),12,105,113,-2
NC(=O)N1c2ccccc2CC(=O)c2ccccc21,2,100,104,-11
CNC(=O)NCC12CC3CC(CC(C3)C1)C2,-70,108,101,-8
O/N=C1\CC(O)(C(F)(F)F)Oc2ccc(Cl)cc21 (stereo not given),7,100,101,-1
COc1cc(OC)cc(C(=O)NCC(=O)OC2CCOC2=O)c1 (stereo not given),-36,99,112,2
C#CCNCc1cc(=O)n2ccsc2n1,-1,106,106,20
CC1CCN(C(=O)c2cc3sccc3n2C)CC1,11,100,102,7
Cc1cc(C(=O)O)c(=O)[nH]c1C,21,102,98,113
O=C(CSc1nnc2sc3ccccc3n12)N1CCc2ccccc21,-19,101,108,-1
Oc1ccc(Cl)cc1/C=N/c1nccs1,-30,97,99,16
CC(C)C1=NN(C(=O)C(O)c2ccccc2)C(O)(C(F)(F)F)C1 (stereo not given),-12,102,104,-9
CC(NC(=O)c1cccs1)c1ccccc1 (stereo not given),-4,103,102,-15
CCOC(=O)C1=C(CSc2ccc(C)cc2C)NC(=O)NC1C (stereo not given),-19,102,110,-6
O=C(Nc1cccc(C(F)(F)F)c1)c1cccs1,-14,102,100,5
CNC(=S)NC1CC2CCC1C2 (stereo not given),9,104,108,-13

# (next part)
SMILES,MenB inh,PV pol inh,PV pol inh intensity,MbtI inh
O=C(/C=C1\Sc2ccccc2NC1=O)NCCCN1CCC(Cc2ccccc2)CC1,-25,102,108,-6
c1ccc(CN2CCN(Cc3ccccc3)C2c2ccc3c(c2)OCO3)cc1,-11,108,109,·
Cc1cc(C)n2nc(SC/C(O)=C(\C#N)c3nc4ccccc4[nH]3)nc2n1,-35,118,139,47
C=CCSc1nnc2c(n1)OC(C1CC=C(C)CC1)Nc1ccccc1-2 (stereo not given),12,100,103,1
CCCCC(Sc1ccc2nnc(-c3ccc(OC)c(OC)c3)n2n1)C(=O)O (stereo not given),-4,103,103,8
CCCC(=O)ON1C(=O)c2cccc3cccc(c23)C1=O,-23,98,101,69
N#CC1(NC(=O)CSc2nnc(COc3ccccc3F)n2-c2ccccc2)CCCCC1,-43,100,95,-5
CNC(=S)NCCN1CCCCC1,-97,103,102,-19
O=C(Cc1cn2ccsc2n1)N/N=C1\C(=O)c2cccc3cccc1c23,-10,100,105,-14
COc1ccc(NC(=O)CS(=O)(=O)c2c[nH]c3ccccc23)cc1,-12,100,96,-7
O=c1ccnc(SCCc2ccccc2)[nH]1,-2,100,103,-4
CN1/C(=C\C(=O)CSCc2ccco2)C(C)(C)c2ccccc21,-58,121,128,10
O=C1Nc2ccccc2/C1=N\N=C\c1ccccc1,-56,98,101,14
CSc1cccc(NC(=O)COC(=O)c2ccccc2)c1,-23,97,93,2
COc1ccc(C(=O)O)cc1S(=O)(=O)NCCc1ccccc1,-19,105,102,-21
Nc1ncnc2c1ncn2[C@@H]1O[C@H](CO)[C@@H](O)[C@@H]1O,-9,100,99,-15
CC(C)(C)C(=O)COC(=O)c1ccc(NS(=O)(=O)c2cccs2)cc1O,9,103,99,14
CCN(CCO)Cc1cn[nH]c1-c1ccc(C)c(C)c1,9,101,107,·
CCN1CCN(CC(=O)N/N=C/c2ccccc2)CC1,-56,100,102,-5
C=CCn1c(SCC(=O)N2CCc3ccccc3C2)nnc1-c1ccccc1OC,-20,101,107,-25
CCN(C(=O)NS(=O)(=O)c1ccc(C)cc1)C1CCCCC1,-12,107,103,-2
Cc1onc(-c2ccccc2)c1C(=O)NC1C(=O)N2[C@@H]1SC(C)(C)[C@@H]2C(=O)O (stereo not given in full),5,99,102,-19
Cc1cccc(N(C)S(=O)(=O)c2ccc3[nH]c4c(c3c2)CCCC4)c1,-18,102,105,2
CCC(C(=O)C(C)C(O)C(C)CCc1ccc(C)c(O)c1C(=O)O)[C@H]1O[C@](CC)([C@H]2CC[C@](O)(CC)[C@H](C)O2)C[C@@H]1C (stereo not given in full),-9,100,101,-253
CCOc1ccc(C(C)N)cc1 (stereo not given),-23,102,103,-11
Cc1cccc(N2CCN(C(=O)CCc3nnc4n(C)c(=O)c5ccccc5n34)CC2)c1C,-24,103,102,12
O=C(COC(=O)C1=COCCO1)NCc1cccs1,10,105,100,16
Cc1nc2ccc(S(=O)(=O)N(C)CC(=O)NC3CCCC3)cc2s1,3,103,104,-19
Cc1ccsc1/C=N/NC(=O)c1nnn(-c2nonc2N)c1C,-21,103,105,-11
Cc1ccc2c(c1)C1CN(C)CCC1N2C(=O)COc1ccccc1 (stereo not given),·,98,97,0
CCc1cc(C(=O)OC)c(NC(=O)CC2SC(=NC)N(C)C2=O)s1 (stereo not given),23,103,102,3
CC(C(=O)NCc1ccco1)N(C(=O)c1ccc(Cl)nc1)C1CCCCC1 (stereo not given),-31,103,102,4
CC(C)NC(=O)CSc1nnc(-c2ccc(C(C)(C)C)cc2)n1-c1ccc2c(c1)OCO2,1,110,116,-11
CCOC(=O)CNc1c(-c2ccc(OC)cc2)nc2cccc(C)n12,-70,103,102,90
S=C1NC2(CCCCCC2)NN1c1ccccc1,-21,102,102,5
CC(=O)Nc1ccccc1C(=O)NN,-1,104,100,0
COc1ccc(Cl)cc1NC(=O)CN(C)CN1C(=O)C2CC=CCC2C1=O (stereo not given),7,100,104,-7
O/N=C1/C2CN3CCN(C2)CC1(Cc1ccccc1)C3,-13,103,111,·
COc1ccc(OC)c(CNC(=O)c2cc3cc4ccc(C)cc4nc3o2)c1,-11,102,102,6
COc1ccccc1N1CCN(C(=O)c2cnn3c(C)c(Cc4cccc(C)c4)c(C)nc23)CC1,14,99,96,123
COC(=O)CN1C(=O)/C(=C\c2ccc(O)cc2)SC1=S,-305,125,168,17
COC(=O)C1=C(C)NC(=S)NC1c1cn(-c2ccccc2)nc1-c1cccs1 (stereo not given),-23,108,99,·
CN(C)c1ccc(C=Nc2ccc(C(N)=O)cc2)cc1,-48,97,101,7
N#Cc1ccc(OCC(=O)O)cc1,·,100,95,-2
Cc1ccc(CNC(=O)Cn2c3ccc(C)cc3c3nc4n(c(=O)c32)CCS4)cc1,-31,104,99,59
CCN1C(=O)c2cccc3c(S(=O)(=O)N4CCc5ccccc5C4)ccc1c23,-4,104,104,-3
Cc1cnc(NC(=O)CCN2C(=O)c3ccccc3C2=O)s1,-12,99,105,-7
O=c1c(-c2nnnn2-c2ccccc2)c[nH]c2ccccc12,-3,105,112,-14
C=CCN(C(=O)CSc1nc2ccccc2o1)c1nc2c(s1)CCCC2,-11,78,222,27
N#Cc1ccc(Cl)cc1NC(=O)COC(=O)C1CC1,·,102,105,-10
CC1CCC(C(C)C)C(=O)/C1=C/c1ccc(N(C)C)cc1 (stereo not given),-22,105,108,2
CCOC(=O)C1=C(C)NC2=C(C(=O)OC2)C1c1ccccc1 (stereo not given),0,97,96,-44
Nc1ccc(C(=O)OC(C(=O)N2CCOCC2)c2ccccc2)cc1 (stereo not given),6,107,110,0
O=C(CCc1ccccc1)OCc1nc2ccccc2s1,·,99,111,1
N=C1/C(=C2\Nc3ccccc3S2)CC(=O)N1C1CC1,-22,120,138,94
Cc1nc(CCNC(=O)c2ccccc2)cs1,-6,105,108,-6
COc1ccc(-c2ccnc(SCC(=O)N3CCOCC3)n2)cc1,-12,105,110,-104
COc1ccc(NCC(=O)N/N=C2\CCc3ccccc32)cc1,-25,106,110,-6
COc1ccc(OCCn2c(-c3ccc(Cl)cc3)nc3ccccc3c2=O)cc1,-4,100,102,-4
CCOC(=O)c1c(N=CN(C)C)c(C#N)c2n1CCC2,4,102,104,6

# Two entries from above, with two lines to a compound:
# Under each structure – MenB inh	PV pol inh	PV pol inh intensity	MbtI inh
Cc1ccsc1/C=N/NC(=O)c1nnn(-c2nonc2N)c1C
  -21	103	105	-11
Cc1cc(C)n2nc(SC/C(O)=C(\C#N)c3nc4ccccc4[nH]3)nc2n1
  -35	118	139	47

# Continuation.
SMILES,MenB inh,PV pol inh,PV pol inh intensity,MbtI inh
Cc1ccc(C2=N/C(=C\c3c(C)nn(-c4ccccc4)c3N3CCCC3)C(=O)O2)s1,-11,28*,42*,-1
C=CCN1C(=O)/C(=C\C=C2/CCCN2C)SC1=S,-17,·,·,10
CCC1=C(C)C(N2CCOCC2)=NP(N2CCOCC2)(N2CCOCC2)=N1,0,100,107,2
COc1cccc(NCc2nnc(SCC(=O)N3CCNC3=O)n2C2CCCCC2)c1,-21,103,109,-10
Oc1ccc(O)c(CN2CCCCCC2)c1,-19,101,104,101
CCN(CC)CC(O)COc1ccc(C(C)(C)CC)cc1C(C)(C)CC (stereo not given),-26,101,104,5
O=C(CN1C(=O)C2C3C=CC(C3)C2C1=O)Nc1nc(SCc2ccc(Cl)cc2)n[nH]1 (stereo not given),-10,106,107,-10
Cc1cccc(C)c1NC(=S)NC12CC3CC(CC(C3)C1)C2,-23,101,94,·
CCCS(=O)(=O)N1CCN(c2ccc(NCC3CCCO3)nn2)CC1 (stereo not given),-18,110,116,-7
COC(CNC(=O)c1cc2c(s1)CS(=O)(=O)C2)OC,-4,99,104,7
CN(C)CCCNc1nnnn1-c1ccccc1,-3,98,104,10
O=C(O)/C=C/c1ccc(N2CCCCCC2)cc1,-18,101,108,8
N#CC1=C(N)C(C#N)=c2s/c(=C/c3cccc(F)c3)c(=O)n2C1c1cccc(F)c1 (stereo not given),2,114,121,·
Cc1ccc(S(=O)(=O)N2CCCC2)cc1C(=O)O,-22,103,103,-3
CN(C)CCN(C)Cc1cc(C(C)(C)C)c(O)c(C(C)(C)C)c1,-7,99,103,-8
COc1ccc(CCNC(=O)Cn2cnc3onc(-c4ccc(Cl)cc4)c3c2=O)cc1OC,-15,102,102,-4
COc1cccc(Cn2c(-c3cncs3)nc3ccccc32)c1,7,103,111,·
Cc1cc(=O)n2c(c1C#N)SCCC2,-28,102,101,8
CCC(C)NC(=O)Cn1nc(C)c(S(=O)(=O)N2CCCCC2)c1C (stereo not given),-14,99,93,14
CN1CCC(=CC(=O)O)CC1,4,100,101,-5
CS(=O)(=O)c1ccc([C@@H](O)[C@@H](CO)NC(=O)C(Cl)Cl)cc1,8&2,101&100,102&100,-11&-20
O=C1SC(Nc2ccc(Br)cc2)C(=O)N1Cc1ccccc1 (stereo not given),-41,104,101,90
CS/C(=N\S(=O)(=O)c1ccccc1)NNc1ccccc1,-2,103,94,15
CN(Cc1ccccc1)C(=O)c1cnc2sccn2c1=O,-7,102,103,4
CCn1c(C(=O)Nc2ccc(C)c(C)c2)cc2sc(Cl)cc21,-1,104,106,4
Cc1cc(N2CCCCC2)nc(N2CCOCC2)n1,-7,102,107,·
COC(=O)c1ccccc1NCNc1ccccc1C(=O)OC,-4,127,134,·
CC(Sc1nc(-c2ccccc2)cc(C(F)(F)F)n1)C(=O)O (stereo not given),-13,103,107,-8
CCn1c(Sc2nnnn2-c2ccccc2)nc2cc(S(=O)(=O)N3CCOCC3)ccc21,-31,102,100,0
CC1(C)Cc2c(ccc3ccccc23)C(=O)N1,-13,102,104,i
COC(=O)c1ccccc1OC(=O)c1ccncc1,-42,101,105,-12
O=C(O)CN1CCSC1=O,13,·,·,3
CCCCn1c(CN2CCOCC2)nc2ccccc21,-5,100,104,12
Oc1cccc2c1NCCC2,-24,99,103,83
COc1ccc2ccccc2c1CN1CCN(C(=O)c2ccco2)CC1,-11,100,99,-8

# From PubChem
